# TRPML1 agonist – agonists of human TRPML1 channel; Q9GZU1; TRPML1-expressing cells, Ca2+ dye fluorescence, FDSS; host cell line not named in the record; reference of the full effect not given here; activation, % (concentration not given with the values); 410,000 tested, 0.12% active; in the data active = activation above about 50%; inconclusive = about 30% to 50%; inactive = below about 30%; also: 0% is about no effect; the text of the record puts the active cut at 80%
# Target sequence (Q9GZU1 whole entry, looked up): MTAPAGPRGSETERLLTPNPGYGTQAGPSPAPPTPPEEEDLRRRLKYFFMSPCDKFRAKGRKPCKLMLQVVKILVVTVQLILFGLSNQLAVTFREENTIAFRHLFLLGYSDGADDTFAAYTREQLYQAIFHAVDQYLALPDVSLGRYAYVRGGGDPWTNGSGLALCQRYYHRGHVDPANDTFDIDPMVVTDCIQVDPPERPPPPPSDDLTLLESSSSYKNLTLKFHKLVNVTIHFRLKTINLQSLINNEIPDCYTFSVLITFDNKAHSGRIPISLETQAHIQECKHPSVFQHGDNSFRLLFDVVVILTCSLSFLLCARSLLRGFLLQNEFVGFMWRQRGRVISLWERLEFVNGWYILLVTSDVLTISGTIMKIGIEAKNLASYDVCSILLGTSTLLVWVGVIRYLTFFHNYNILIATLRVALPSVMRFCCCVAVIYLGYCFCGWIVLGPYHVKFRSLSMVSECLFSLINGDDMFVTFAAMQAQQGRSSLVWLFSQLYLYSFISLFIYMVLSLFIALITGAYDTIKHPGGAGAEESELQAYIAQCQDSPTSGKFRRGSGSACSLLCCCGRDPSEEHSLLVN
#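 Kinetic FDSS Ca2+ read in Tet-induced TRPML1-DL cells (ABD Ca8 dye plus quencher, 45-90 min RT loading): baseline, then compound, then 110 s agonist window; EC80 agonist 54-4 at 4uM final added afterwards for a 110 s antagonist window.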
# TRPV1 potentiator – human TRPV1 potentiation | Q8NER1 | potentiation, % at 8.33 µM | 320,000 tested, 0.02% active | AID 540277 | TRPV1-expressing cells, Fluo-8 calcium influx, capsaicin EC20 potentiation; host cell line not named in the record; control for the full effect not named in the record; active means potentiation above 80%; inconclusive means 30% to 80%; inactive means below 30%; also: 0% is about no effect
#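 Cells expressing TRPV1 were dye-loaded with Fluo-8 and read kinetically: 10 s baseline, 3 min after compound (agonist portion), then 2 min after EC20 capsaicin (allosteric enhancer portion). Calcium-bound dye fluorescence at 480/520 nm.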
# D2 potentiator – positive allosteric modulators of human D2 dopamine receptor | P14416 | DiscoveRx D2 beta-arrestin cells, luminescence, 90 min; 100% = 57 uM dopamine signal | potentiation, % (no concentration beside the values) | 360,000 tested, 0.23% active; active = potentiation of 50% or more; inconclusive = 30% to 50%; inactive = 30% or less;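 also: compound concentration not given in the record; tested on top of an EC20 dose of dopamine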
# Target sequence (P14416 whole entry, looked up): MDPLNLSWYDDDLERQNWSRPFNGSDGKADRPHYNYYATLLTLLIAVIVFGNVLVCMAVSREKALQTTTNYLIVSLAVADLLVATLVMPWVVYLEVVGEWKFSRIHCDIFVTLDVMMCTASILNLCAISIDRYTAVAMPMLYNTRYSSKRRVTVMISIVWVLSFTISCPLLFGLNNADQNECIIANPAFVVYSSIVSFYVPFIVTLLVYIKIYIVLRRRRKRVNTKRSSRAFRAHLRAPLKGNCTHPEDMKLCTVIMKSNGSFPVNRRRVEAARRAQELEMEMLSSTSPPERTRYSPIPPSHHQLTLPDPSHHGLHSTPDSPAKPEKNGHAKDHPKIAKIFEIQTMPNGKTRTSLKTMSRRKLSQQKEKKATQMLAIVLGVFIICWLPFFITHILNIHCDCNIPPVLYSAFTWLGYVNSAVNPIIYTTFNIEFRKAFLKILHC
#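 PathHunter D2 cells, attached overnight at 37 deg C, received compound in DMSO plus dopamine at EC20 (50 nM final) for 90 min at 37 deg C. Beta-arrestin recruitment was read as luminescence after 1 h with detection reagent at ambient temperature.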
# Six1-Eya2 blk – inhibitors of human Six1/Eya2 interaction | AID 651725 | Q15475+O00167 | activity change, % (test concentration not listed) | AlphaScreen GST-Six1/His-Eya2 binding, biochemical; stronger effect = lower value; control for the full effect not named in the record | 360,000 tested, 0.56% active; in the data active = activity change below about -65%; inconclusive = about -30% to -65%; inactive = above about -30%; also: % is scaled to controls: 0 for no effect and ±100 for the full control effect; compound concentration not given in the record
#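 Homogeneous AlphaScreen proximity assay pairing GST-Six1 with His-tagged Eya2 (added as 5X mix: 250 nM and 500 nM) in 50 mM Tris pH 8.0, 300 mM NaCl, 1 mM TCEP. Glutathione donor and nickel acceptor beads; 1 h, 37 °C, dark.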
# TRPML1 inh – inhibitors of human TRPML1 channel; Q9GZU1; TRPML1-inducible cells, Ca2+ dye fluorescence, FDSS; stronger effect = lower value; inhibition of EC80 agonist-evoked calcium signal; activity change, negative = inhibition, % (test concentration not listed); 390,000 tested, 0.02% active; AID 624415; in the data active means activity change below about -50%; inconclusive means about -30% to -50%; inactive means above about -30%;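 also: stimulus is agonist 54-4 at its EC80 concentration; % is scaled to controls: 0 for no effect and ±100 for the full control effect; compound concentration not given in the record; the text of the record puts the active cut at -80%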
#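 TRPML1-DL cells, Tet-induced overnight (~16 h, 37 °C) at 1,500 cells/well, were loaded with Ca8 no-wash dye plus quencher for 45-90 min at room temperature. Compounds were pinned during FDSS kinetic reading; agonist 54-4 at EC80 (4 uM final) then added.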
# CtBP-E1A inh – inhibitors of CtBP/E1A interaction; 340,000 tested, 0.49% active; AlphaScreen GST-E1A/His-CtBP binding, 1536-well; stronger effect = lower value; control for the full effect not named in the record; activity change, % (concentration not given with the values); in the data active means activity change below about -65%; inconclusive means about -30% to -65%; inactive means above about -30%; also: % is scaled to controls: 0 for no effect and ±100 for the full control effect
#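 In 5 uL wells, 23 nL compound meets equimolar GST-E1A and His-CtBP (5X stock 125 nM each) for 2 h, 37 °C. Beads (5X, 50 ug/mL) then 1 h, 37 °C, dark.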
# * hit, by the source's call; ? = inconclusive; . = not tested or not shown; & = joins results of further samples. A portion of the library (hit frequency here may not be typical).
SMILES,TRPML1 agonist,TRPV1 potentiator,D2 potentiator,Six1-Eya2 blk,TRPML1 inh,CtBP-E1A inh
O=P(c1ccccc1)(c1nc2ccccc2s1)N1CCOCC1 (stereo not drawn),-0.1,-6,9,1,-8,6
CCN1C[C@]2(C)CC[C@H](O)[C@]34C1[C@H](C[C@H]23)[C@@]1(O)C[C@H](OC)[C@H]2C[C@@H]4[C@@H]1C2O (stereo partly drawn),-0.4,9,5,-1,7,0
O=C(Cc1cccs1)N1CCC2(CC1)OCCO2,-0.1,4,-5,0,3,3
COP(=O)(OC)C1(O)C(=O)Nc2ccc(Br)cc21 (stereo not drawn),1.1,9,-42,1,3,-4
CCN1CCN(C(=O)Cc2coc3cc(C)cc(C)c23)CC1,-0.5,7,-16,3,6,4
Cc1ccc(CN2CCC3CCC(C3)C2)c(O)c1 (stereo not drawn),-0.1,.,-4,-10,0,8
CN1CCC2(CC1)N=C(c1ccc(F)cc1)C(=S)N2,1.7,-12,2,-22,-7,4
Cc1cccc(N2C(=O)/C(=C/c3ccc(N4CCN(C)CC4)o3)C(=O)NC2=S)c1C,15,-1,-23,-8,-11,-12
Cc1ccc(N2C(=O)CC(=O)NC2=O)cc1Cl,-0.4,7,-2,-4,-4,3
COc1ccc(C2CN(C)CC2C(=O)c2ccc(C)cc2)cc1Cl (stereo not drawn),-0.5,-1,-6,-10,11,-3
COc1ccc(-n2c(O)c(/C=C3\C=Nc4ccc(Br)cc43)c(=O)[nH]c2=O)c(OC)c1,0.8,13,5,3,11,7
Clc1ccccc1Nc1ncnc(-n2cccc2)n1,0.5,2,-11,-4,-4,-1
O=c1[nH]c2ccccc2n1C1CCN(C(CCc2ccccc2)c2nnnn2C2CCCCC2)CC1 (stereo not drawn),-0.7,.,3,-3,.,3
O=C(Nc1ccc(Br)cc1)c1nn(C23CC4CC(CC(C4)C2)C3)cc1Br,-1.0,-11,1,3,8,3
Clc1ccccc1CNC1CN2CCC1CC2 (stereo not drawn),-0.3,2,-11,-3,10,-7
c1ccc(C(c2ccccc2)c2ccncc2)cc1,0.1,.,-21,-9,5,-3
Cc1nn(CC(=O)N2CCC3(CC2)OCCO3)c(=O)c2cc3ccccc3n12,-0.4,7,-4,-1,11,0
Cc1ccc(OCC(=O)N2CCN(Cc3ccc4c(c3)OCO4)CC2)cc1,1.8,-19,-14,-2,0,.
Oc1cc2c(cc1CN1CCN(c3ccc(F)cc3)CC1)OCO2,-0.4,9,-23,-18,4,-12
O=C1CC2OCC=C3CN4CCC56c7cc([N+](=O)[O-])ccc7N1C5C2C3CC46 (stereo not drawn),-0.2,8,-10,-1,-9,.
CCCCn1c(C)c(C(=O)O)c2cc(OC)ccc21,-0.4,-7,-6,-1,-20,6
COc1ccc2c(c1OC)CN1CCc3cc4c(cc3[C@H]1C2)OCO4,0.1,12,-19,-16,-5,-5
CC(=O)Nc1cc([As](=O)(O)O)ccc1O,-0.4,-4&0,-11,1,7,9
Cc1cc(C)nc(/N=C(\N)c2c(O)[nH]c(=O)[nH]c2=O)n1,-0.4,0,-1,-1,2,-4
CC1=CC(=C2C(=O)NC(=O)NC2=O)C=C(C(F)(F)F)N1Cc1ccccc1,0.1,4,-4,1,-5,-6
O=C(CN1CCOCC1)NCC(=O)Nc1ccc(Br)cc1C(=O)c1ccccc1,0.1,-7,-15,-2,-4,-3
CCCCCN1C(=O)c2cc(OC)ccc2[C@@]2(C(=O)OCC)Cc3cc(Cl)ccc3[C@@H]12,3.3,.,.,13,.,-3
CC1=C(N2CC2)C(=O)C(CO)=C(N2CC2)C1=O,0.9,.,-46,-3,-8,4
CCOC(=O)[C@]12Cc3cc(Cl)ccc3[C@H]1N(C1CCCCC1)C(=O)c1cc(OC)ccc12,-0.5,.,.,-6,.,-15
CCCCn1c(O)c(C(C)=NC(C)c2ccccc2)c(=O)[nH]c1=O (stereo not drawn),0.1,-16,7,-12,4,-7
Cn1c(=O)[nH]c2nncnc2c1=O,0.0,.,6,-26,-1,-8
CC(=O)CC(c1ccccc1[N+](=O)[O-])c1c(O)c2ccccc2oc1=O (stereo not drawn),-0.4,12,5,8,25,12
C=CCn1c(O)c(N=Nc2c(C)n(C)n(-c3ccccc3)c2=O)c(=O)[nH]c1=S,1.1,-11,2,-91*,-10,-87*
Cc1cc(C)c(-n2c(O)c(/C=N/NC(=O)c3ccncc3)c(=O)[nH]c2=O)c(C)c1,0.2,-8,7,-16,10,?
CCOC(=O)C1C(=O)NC23CCCC2C1c1ccccc1O3 (stereo not drawn),3.8,-7,0,-4,-5,3
C=C(C=O)CC1CC(O)[C@]2(C)OC3CC4OC5C[C@]6(C)O[C@]7(C)CCC8OC9C[C@]%10(C)OC%11C(C)=CC(=O)OC%11CC%10OC9C[C@@H](C)C8OC7CC6O[C@]5(C)CC5OC5C4OC3CC2O1 (stereo partly drawn),-0.2,-9,-36,5,-15,4
COc1cccc(NC(=O)[C@@H](NC(=O)N2C[C@H]3C[C@@H](C2)c2cccc(=O)n2C3)C(C)C)c1,.,0,-21,-11,.,5
CCCCCn1cc(C(=O)C(=O)N2CCOCC2)c2ccccc21,-0.9,-14,9,2,-8,-1
C=CCn1c(O)c(C(CC)=Nc2ccc(C(=O)O)cc2)c(=O)[nH]c1=O,-0.6,8,-6,15,-14,9
COC(=O)[C@@H]1C[C@@]1(C)[C@@H](NP(=O)(c1ccccc1)c1ccccc1)c1ccccc1,-1.3,-15,-10,2,0,3
COc1ccccc1-n1c(-c2ccccc2Br)nc2ccccc2c1=O,1.3,-10,-5,1,-3,-1
COC(=O)c1ccc(COc2cc(C)cc3oc(=O)c4c(c23)CCCC4)o1,2.2,-4,-27,-4,36,5
CCN1CCN(c2ccc(NC(=O)C(C)C)cc2Cl)CC1,0.7,-12,-4,5,4,-4
COc1cc(C(c2c(C)[nH]n(-c3ccccc3)c2=O)c2c(C)[nH]n(-c3ccccc3)c2=O)cc(OC)c1OC,-0.3,6,-17,-23,-8,1
O=C(O)C1CN2CCC1CC2 (stereo not drawn),0.3,-7,-3,-2,3,0
O=S(=O)(c1ccc(Cl)cc1)N1CCCCC1c1cccnc1 (stereo not drawn),4.1,0,-9,7,37,-2
O=c1[nH]c(=S)n(C2CC2)c(O)c1/C=N/Nc1ccccc1,0.1,4,-27,-17,37,-16
CCCCc1nc2ccccc2c(=O)n1-c1ccccc1[N+](=O)[O-],-1.1,3,-6,-12,6,-3
Cc1cc(NCCN)nc2ccccc12,-0.5,2,-20,-2,-5,-1
O=C(c1ccc2c(c1)OCO2)C1CCCN(CC2CCCCC2)C1 (stereo not drawn),-0.4,-7,-6,-4,-2,0
# More records.
SMILES,TRPML1 agonist,TRPV1 potentiator,D2 potentiator,Six1-Eya2 blk,TRPML1 inh,CtBP-E1A inh
N#CC1=C(N)Oc2c(c(=O)oc3ccccc23)C1c1ccc([N+](=O)[O-])o1 (stereo not drawn),0.7,-3,-10,-26,-2,?
COC(=O)C1=C(c2cccc(OCc3ccccc3)c2)C[C@@H]2CC[C@H]1N2C(=O)NC1CCN(Cc2ccccc2)CC1,-0.4,-8,-26,-11,-17,-18
CCN1CCN(C(=O)COc2ccc(S(=O)(=O)Nc3ccc(Cl)cc3)cc2)CC1,3.1,-23,-8,6,27,-17
C[C@]12C=CC(=O)C=C1CC[C@@H]1C2CC[C@]2(C)OC(=O)CCC12 (stereo partly drawn),0.1,7,-3,-2,4,-2
CC1=CC(=O)OC2CC3OC4C[C@@H](C)C5OC6CC7O[C@]8(C)C/C=C\C9OC%10CC%11OC(CC(C)CO)CC(O)[C@]%11(C)OC%10CC9OC8C[C@]7(C)O[C@]6(C)CCC5OC4C[C@]3(C)OC12 (stereo partly drawn),29,-10,-4,2,-13,2
CCCCC(=O)N/N=C/c1c(O)n(-c2ccccc2)c(=O)[nH]c1=O,0.6,4,-18,-83*,-9,?
CN1CCN(c2ccc(F)cc2N)CC1,-0.6,-4,-11,-3,-7,5
COC(=O)C1=C(C(=O)OC)SC2(S1)C(C(=O)OC)=C(C(=O)OC)Sc1c2ssc1=O,4.3,.,-49,-91*,2,6
COc1ccccc1N=Cc1c(O)n(C)c(=O)n(C)c1=O,-0.6,2,-15,0,5,5
Fc1ccc(C2=CCN(C(c3cccs3)c3nnnn3CCc3ccccc3)CC2)cc1 (stereo not drawn),-0.2,20,-14,-3,-2,-5

# An excerpt of these results, with two lines to a compound.
# Values run as follows: TRPML1 agonist, TRPV1 potentiator, D2 potentiator, Six1-Eya2 blk, TRPML1 inh, CtBP-E1A inh
> Cc1cc(C)nc(/N=C(\N)c2c(O)[nH]c(=O)[nH]c2=O)n1
→ -0.4, 0, -1, -1, 2, -4
> CC1=CC(=C2C(=O)NC(=O)NC2=O)C=C(C(F)(F)F)N1Cc1ccccc1
→ 0.1, 4, -4, 1, -5, -6
> O=C(CN1CCOCC1)NCC(=O)Nc1ccc(Br)cc1C(=O)c1ccccc1
→ 0.1, -7, -15, -2, -4, -3
> CCCCCN1C(=O)c2cc(OC)ccc2[C@@]2(C(=O)OCC)Cc3cc(Cl)ccc3[C@@H]12
→ 3.3, ., ., 13, ., -3
> CC1=C(N2CC2)C(=O)C(CO)=C(N2CC2)C1=O
→ 0.9, ., -46, -3, -8, 4

# The list continues:
SMILES,TRPML1 agonist,TRPV1 potentiator,D2 potentiator,Six1-Eya2 blk,TRPML1 inh,CtBP-E1A inh
COc1ccc(Cl)cc1N=Cc1c(O)n(C)c(=O)n(C)c1=O,1.8,?,-3,4,9,-16
O=C(NCc1cccnc1)Nc1ccc([N+](=O)[O-])cc1,-0.4,-9,-9,1,-2,-18
CCOc1ccc(-n2c(O)c(C=NCCCn3ccnc3)c(=O)[nH]c2=O)cc1,-0.8,8,7,1,-2,5
CCOC(=O)c1nc2ccccc2c(=O)n1-c1ccc(C)cc1,0.6,-2,-5,?,18,20
COc1ccc(CN2C(=O)CC(=O)NC2=O)cc1,-0.5,1,-1,1,2,3
BrCCc1ccccc1,-0.7,-6,-10,-5,0,0
NC(Cc1ccc(F)cc1)c1csc(Nc2cnccn2)n1 (stereo not drawn),1.1,.,-13,-74*,.,-83*

# Part of the list above, set out differently.
SMILES	TRPML1 agonist	TRPV1 potentiator	D2 potentiator	Six1-Eya2 blk	TRPML1 inh	CtBP-E1A inh
CCOC(=O)C1C(=O)NC23CCCC2C1c1ccccc1O3 (stereo not drawn)	3.8	-7	0	-4	-5	3
CN1CCC2(CC1)N=C(c1ccc(F)cc1)C(=S)N2	1.7	-12	2	-22	-7	4
Cc1ccc(OCC(=O)N2CCN(Cc3ccc4c(c3)OCO4)CC2)cc1	1.8	-19	-14	-2	0	.
CCN1C[C@]2(C)CC[C@H](O)[C@]34C1[C@H](C[C@H]23)[C@@]1(O)C[C@H](OC)[C@H]2C[C@@H]4[C@@H]1C2O (stereo partly drawn)	-0.4	9	5	-1	7	0
CC1=CC(=C2C(=O)NC(=O)NC2=O)C=C(C(F)(F)F)N1Cc1ccccc1	0.1	4	-4	1	-5	-6

# From PubChem BioAssay
